High-throughput results deposited in PubChem BioAssay by several laboratories.
ALR H2O2 inh = inhibitors of human ALR sulfhydryl oxidase, primary screen, biochemical, H2O2 detection, HRP-luminol luminescence, single point; FAD-linked sulfhydryl oxidase ALR (Homo sapiens), P55789; purified ALR, DTT oxidation; inhibition, % (concentration not given with the values); 290,000 tested, 3.8% active; AID 485317, 2010;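 active = mean and each replicate at 75% or more; inconclusive = only one of the two met; inactive = neither met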;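 note: stock transfer was 7.5 nL into about 7.5 µL; 0% = neutral wells and 100% = wells with inactivated enzyme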
Target sequence (P55789 whole entry, looked up): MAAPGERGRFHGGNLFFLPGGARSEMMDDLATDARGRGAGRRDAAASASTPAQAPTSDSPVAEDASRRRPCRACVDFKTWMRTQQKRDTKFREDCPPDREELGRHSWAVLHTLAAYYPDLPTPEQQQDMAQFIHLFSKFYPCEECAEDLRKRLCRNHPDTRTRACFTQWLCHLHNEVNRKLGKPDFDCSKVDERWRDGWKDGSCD
Ecoli growth = E. coli growth inhibition, primary screen, OD600; Escherichia coli growth, 23 h; stronger effect = lower value; OD600 absorbance (no concentration beside the values); 330,000 tested, 0.21% active;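 active = OD600 absorbance below the run mean of sample wells minus 3.6 SD, in any replicate, cut at about 0.56 in these data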;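 note: stock transfer was 300 nL into about 60 µL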
LANA-H2A inh = blockers of LANA interaction with H2A/H2B – biochemical, FP readout, HTS, primary screen. cell-free LANA-H2A/H2B peptide, fluorescence polarization. inhibition, % (no concentration beside the values). 320,000 tested, 0.6% active. AID 2629, 2010; in the data active = inhibition mostly above about 10%, no sharp cut-off; inactive = mostly below about 6.7%;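 note: stock transfer was 7.5 nL into about 10 µL; 0% = median of vehicle wells and 100% = median of positive control wells; one replicate is shown; the record names a cut of 25% in any replicate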
HNF4A DNA FP = change in binding of human HNF4A to DNA, primary screen, biochemical, fluorescence polarization, FITC-DNA | 1 h | 360,000 tested, 0.3% active | activity change, % at 10 µM | Hepatocyte nuclear factor 4-alpha (Homo sapiens), P41235; in the data active = activity change above about 30%, passing the limit was not always enough;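 note: controls were the assay level and a saturating level of protein; the project sought stronger binding though the title names inhibitors; some compounds called inactive have numbers as strong as hits; positive values seem to mean higher polarization but the record does not say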
Target sequence (P41235 whole entry, looked up): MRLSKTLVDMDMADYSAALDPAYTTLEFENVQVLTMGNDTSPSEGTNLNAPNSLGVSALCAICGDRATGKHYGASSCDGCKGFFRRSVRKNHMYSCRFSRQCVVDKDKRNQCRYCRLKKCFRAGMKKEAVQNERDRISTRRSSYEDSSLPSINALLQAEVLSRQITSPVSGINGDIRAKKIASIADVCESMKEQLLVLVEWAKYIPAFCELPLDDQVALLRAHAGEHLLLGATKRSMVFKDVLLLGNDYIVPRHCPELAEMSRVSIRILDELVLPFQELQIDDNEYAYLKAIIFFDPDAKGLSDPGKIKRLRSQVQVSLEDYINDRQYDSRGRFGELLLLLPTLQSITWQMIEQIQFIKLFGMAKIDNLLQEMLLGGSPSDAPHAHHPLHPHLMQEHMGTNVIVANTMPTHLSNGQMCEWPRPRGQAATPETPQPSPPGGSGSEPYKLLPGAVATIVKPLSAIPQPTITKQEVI
B2AR ag = beta2AR agonists driving receptor internalization, primary screen, cell-based, FAP fluorogen, flow cytometry | 340,000 tested, 0.43% active | Beta-2 adrenergic receptor (Homo sapiens), P07550 | AID 504454, 2011 | Am2.2-beta2AR cells; reference of the scale not given here | response, % (concentration not given with the values);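 active = response above a set limit, near 3 SD of response in nonfluorescent compounds, cut at about 42% in these data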;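 note: stock transfer was 100 nL into about 11 µL; a reference agonist was the positive control; negative values mostly stem from fluorescent compounds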
FGF22 binding = binders of human FGF22 protein, primary screen, FGF22 synaptogenesis inhibitor project, biophysical, thermal shift, single point; Fibroblast growth factor 22 (Homo sapiens), Q9HCT0; recombinant FGF22 thermal shift, SYPRO orange fluorescence; percent of sucrose octasulfate shift, DMSO zero; calls only at 9.99 µM; 340,000 tested, 1.5% active; AID 651658, 2012;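 active = melting point raised past a set limit in the mean and every replicate; inconclusive = no clear call; three in four hits are not shown here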
Target sequence (Q9HCT0 whole entry, looked up): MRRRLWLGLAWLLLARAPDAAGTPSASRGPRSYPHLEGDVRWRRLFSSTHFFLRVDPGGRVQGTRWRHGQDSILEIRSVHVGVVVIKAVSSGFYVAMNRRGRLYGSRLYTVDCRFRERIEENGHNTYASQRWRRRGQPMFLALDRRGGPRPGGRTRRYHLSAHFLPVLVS
UCH37 DUB inh = inhibitors of human UCH37 deubiquitinase, primary screen, biochemical, Ub-AMC cleavage, fluorescence; Ubiquitin carboxyl-terminal hydrolase isozyme L5 (Homo sapiens), Q9Y5K5; purified proteasome/UCH37; inhibition, % (test concentration not listed); 330,000 tested, 0.33% active; AID 588478, 2011;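 active = mean of two replicates above 20%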;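 note: 0% = compound-free wells with enzyme and 100% = wells lacking proteasome; stock transfer was 100 nL into about 20 µL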
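Reagent: Ub-AMC substrate; assay system: Proteasome-associated human UCH37 deubiquitinase; controls: no-proteasome and no-compound wells; read-out: % inhibition of Ub-AMC cleavage fluorescence; timing: 30 min preincubation with enzyme, 25 min cleavage at room temperature; signal: AMC fluorescence from Ub-AMC cleavage, excitation 355 nm, emission 460 nm; buffer or medium: Tris-HCl pH 7.4 plus ovalbumin, ATP-MgCl2, DTT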
* = called active by the depositor; i = inactive; ? = inconclusive; / = no result given; & = joins results of further samples.

SMILES | ALR H2O2 inh | Ecoli growth | LANA-H2A inh | HNF4A DNA FP | B2AR ag | FGF22 binding | UCH37 DUB inh
CN(C)CCN(C(=O)C1=COCCO1)c1nc2ccc(Cl)cc2s1 | -4.2 | 0.66 | -0.7 | 1.3 | 7.8 | i | 8.6
CCCCn1c(N)c(N(C)C(=O)c2c(C)nn(-c3ccccc3)c2C)c(=O)[nH]c1=O | 16.2 | 0.686 | -7.7 | -0.1 | 0.9 | i | 0.6
CC1CC(C)CN(C(=O)c2cc3c(=O)n4ccccc4nc3s2)C1 (stereo unspecified) | -27.5 | 0.696 | -0.8 | 0.6 | -27.3 | i | -455.1
CN(CC(=O)Nc1ccccc1Cl)C(=O)CSc1nncn1C | -1.2 | 0.628 | -3.6 | 1.1 | -7.5 | / | 2.0
O=S(=O)(c1ccc(F)cc1)N1CCN(S(=O)(=O)c2cccs2)CC1 | -6.8 | 0.715 | 1.7 | 0.6 | -12.6 | i | 1.6
COc1ccc(S(=O)(=O)N2CCN(C(=O)[C@@H]3CCCN3C(=O)c3cccs3)CC2)cc1 | / | 0.654 | / | -6.5 | -10.9 | i | 0.4
CCOC(=O)c1c(C)[nH]c(C)c1S(=O)(=O)N(C)CC(=O)Nc1cc(C)ccc1OC | -6.1 | 0.714 | -4.1 | 0.6 | -1.8 | i | -0.3
CCOC(=O)N1CCN(C(=O)C2CCC(=O)N(CCc3ccccc3)C2)CC1 (stereo unspecified) | 0.4 | 0.689 | 12.5 | 0.3 | -6.1 | i | 2.0
N#CCCN1CCn2c1nc1ccccc12 | -1.0 | 0.74 | 0.1 | -1.3 | 0.2 | / | 0.1
CCOCCCNC(=O)c1ccc(NC(C)=O)cc1 | -3.5 | 0.695 | 0.5 | 0.5 | 2.4 | / | 1.0
C[C@H](NC(=O)c1cc2cc(Cl)ccc2n1C)C(=O)N[C@@H](C(=O)O)c1ccccc1 | -2.9 | 0.656 | 0.7 | -0.6 | -3.8 | i | 1.9
COc1cc2c(cc1OC)C(C)N(C(=O)c1cc(C)on1)CC2 (stereo unspecified) | -1.0 | 0.709 | -2.0 | 11.9 | 16.1 | i | 1.0
O=C(C1CCN(c2nc3nonc3nc2N2CCCCC2)CC1)N1CCOCC1 | -25.3 | 0.704 | 3.1 | -1.6 | -1.5 | / | 7.4
CCn1c(SCC(=O)N/N=C/C=C/c2ccco2)nnc1-c1ccc(OC)cc1 | 2.8 | / | -2.7 | 2.6 | -1.5 | / | /
O=C(CCc1ccccc1)NCc1ccccc1 | -16.6 | 0.699 | -3.3 | 0.5 | -0.1 | i | 3.4
CCN1CCN(Cc2ccc(NC(=O)c3ccc(C)c(NC(=O)c4ccno4)c3)cc2C(F)(F)F)CC1 | 5.7 | 0.638 | 1.9 | 4.5&-4.2 | 9.6 | / | 2.9
C=CCn1c(SCc2cccc(C#N)c2)nnc1-c1ccccc1O | / | 0.749 | 7.1 | -0.3 | 4.4 | i | 3.4
Cc1ccc2c(c1)N(CCC(=O)NC1CCCCC1C)C(=O)CO2 (stereo unspecified) | -23.2 | 0.663 | 1.9 | 3.3 | -1.6 | i | 0.4
COc1ccc(NC(=O)CSc2ncnc3c2cnn3CCc2ccccc2)cc1 | 5.8 | 0.721 | -1.4 | 0.8 | 16.5 | / | 4.3
CCc1cc2c(C)cc(C)cc2nc1SCC(=O)Nc1cc(C)on1 | 5.7 | 0.719 | 3.0 | 1.3 | 4.5 | i | 5.4
O=C(NNc1cc(Cl)ccc1Cl)C1CCC1 | -3.2 | 0.671 | -1.7 | 1.7 | 3.9 | i | 2.3
C/C(=N\NC(=O)c1cc(C)nc2ccccc12)c1ccccn1 | 0.4 | / | 5.5 | -2.6 | 9.2 | i | /
CC(C)C[C@H](NC(=O)c1nc[nH]c1C(=O)NCC(=O)OC(C)(C)C)C(=O)OCc1ccccc1 | 6.9 | / | -1.7 | 3.7 | 12.4 | i | -0.6
CC(=O)Nc1ccc(N2C(=O)CC(Sc3nc4ccccc4s3)C2=O)cc1 (stereo unspecified) | ? | 0.636 | -1.9 | 4.4 | 0.1 | i | 3.1
CC(C)(C)CC(C)(C)NC(=S)Nc1ccc(S(=O)(=O)N2CCOCC2)cc1 | 0.8 | 0.703 | 0.6 | -2.5 | 0.3 | / | 4.9
O=C(Nc1ccc(O)c(-c2nc3ccccc3o2)c1)C1(c2ccc([N+](=O)[O-])cc2)CCCC1 | -2.0 | 0.73 | -6.6 | 3.0 | -0.2 | / | 4.3
O=c1c2cc(NC(=S)NCCCN3CCC(Cc4ccccc4)CC3)ccc2nc2n1CCCCC2 | / | 0.68 | -1.4 | 2.5 | 6.0 | i | 4.8
CCOC(=O)CCCCC(=O)c1[nH]c(=O)[nH]c1CSc1nc2ccccc2[nH]1 | 50.2 | 0.601 | 11.8 | -1.2 | 4.7 | i | 1.1
O=S(=O)(c1cccc(Br)c1)N1CCN(C(=S)NCC2CCCO2)CC1 (stereo unspecified) | 47.6 | 0.644 | 1.8 | -3.9 | -7.2 | i | 2.2
COc1ccccc1NC(=O)CCc1nc(-c2ccccc2F)no1 | -50.3 | 0.679 | -1.0 | -0.7 | -2.3 | i | 7.4
Cc1ccnc(NS(=O)(=O)c2ccc(CC(C)C)cc2)c1 | / | 0.682 | -0.7 | -4.3 | -7.5 | i | -3.7
COC(=O)C1=C(C)NC(=O)NC1c1ccc(-c2ccc(F)cc2)o1 (stereo unspecified) | 9.0 | 0.677 | 4.6 | 2.7 | -11.6 | i | -0.4
COC(=O)c1ccc(Cn2nnc3ccccc3c2=O)o1 | -0.6 | 0.695 | 1.6 | 1.7 | 0.9 | / | -0.9
CCN(CC)S(=O)(=O)c1cccc(NC(=O)CN2C(=O)NC3(CCC(C)CC3)C2=O)c1 (stereo unspecified) | / | 0.633 | / | 2.2 | 0.3 | i | 0.6
Cc1cccc(C(=O)N[C@H](C(=O)Nc2ccc3c(c2)OCO3)C(C)C)c1 | -6.7 | 0.624 | 4.7 | 0.8 | 6.1 | i | 0.2
COc1cc(NS(=O)(=O)c2ccc(NC(=S)NC(=O)c3sc4cc(F)ccc4c3Cl)cc2)nc(OC)n1 | 5.2 | / | -4.3 | -5.2 | 0.8 | i | /
O=c1c2ccccc2cnn1CCOc1ccccc1 | -8.2 | 0.686 | 0.4 | -0.1 | -11.9 | / | -0.4
CC(C)OCCCNS(=O)(=O)c1ccc2c(c1)OCCO2 | -3.7 | 0.696 | -2.3 | -0.3 | 1.5 | / | 3.6
CS(=O)(=O)N1CCN(c2nc(-c3ccc(F)cc3)cs2)CC1 | -10.0 | 0.655 | 0.9 | 4.0 | -1.8 | / | -1.5
COc1c(Cl)cc(Cl)cc1C(=O)Nc1ccc(NC(C)=O)cc1 | / | 0.683 | 0.0 | 2.0 | -8.5 | i | 3.6
O=C(NNC(=O)c1cnccc1C(F)(F)F)c1ccc(Cl)cc1 | -1.8 | 0.684 | 1.8 | -5.3 | -0.5 | i | 2.2
CC(C)CCNC(=O)c1onc(CSc2nc3ccccc3[nH]2)c1C(=O)NCCC(C)C | 3.6 | 0.712 | -0.8 | 3.9 | -8.4 | i | -1.7
COc1ccccc1C(=O)N1CCN(C(=O)c2oc3ccc(C)cc3c2C)CC1 | -10.3 | 0.696 | 4.3 | -3.2 | -2.5 | i | 2.7
CC1CCCC(NC(=O)CN2CCN(S(=O)(=O)c3ccc(Br)s3)CC2)C1C (stereo unspecified) | / | 0.64 | / | -3.1 | -3.2 | / | 2.5
CCN(CC)C(=O)c1c(C)[nH]c(=S)c(C#N)c1-c1ccco1 | -8.8 | 0.734 | -55.8 | 6.9 | -3.1 | i | 3.0
CCOc1ccccc1C(=O)N(C)Cc1cc2cc(OC)ccc2[nH]c1=O | -21.5 | 0.707 | 0.6 | -2.1 | -6.9 | / | -21.9
Cc1c(C(=O)Nc2ccc(F)cc2)oc2ccc(S(=O)(=O)N3CCC4(CC3)OCCO4)cc12 | -5.2 | 0.743 | -6.4 | 8.0 | 16.1 | / | 2.6
CCN(C(=O)CSc1nc2ccc(OC)cc2[nH]1)c1c(N)n(Cc2ccccc2)c(=O)[nH]c1=O | 4.3 | 0.682 | -2.1 | -5.2 | -3.8 | i | 3.4
O=C(CSc1ncc(-c2ccccc2)[nH]1)Nc1ccccc1F | 11.9 | 0.653 | -3.7 | 3.4 | -2.9 | i | 0.9
Cc1ccc(CSCC(=O)NCc2cccs2)cc1 | 1.7 | 0.731 | 1.7 | -3.0 | -1.7 | i | 1.6
CS(=O)(=O)N1CCN(C(=O)Cc2ccccc2)CC1 | 0.3 | 0.763 | 1.1 | 0.2 | -0.4 | / | -1.5
CCC(CC)c1nnc(NC(=O)c2ccc(N3CCCCC3)c([N+](=O)[O-])c2)s1 | -6.8 | 0.75 | 3.0 | -6.2 | 0.9 | i | -1.1
Cc1nnc(SCC(=O)Nc2cc(S(=O)(=O)N3CCOCC3)ccc2N2CCCC2)s1 | / | / | / | 1.1 | -2.0 | i | /
Cc1ccc(C(=O)NNC2=Nc3cccc4cccc2c34)cc1 | -37.1 | 0.683 | 5.0 | -1.3 | 10.7 | / | 4.3
CC(=O)C1=C(C)NC(SCc2cccc([N+](=O)[O-])c2)=C(C#N)C1c1ccco1 (stereo unspecified) | -14.4 | 0.75 | 0.0 | 2.5 | -5.0 | / | -2.8
COc1ccc(NC(=O)CC2C(=O)N(CCc3ccccc3)C(=S)N2Cc2cccnc2)cc1 (stereo unspecified) | 8.3 | 0.751 | -0.7 | -0.3 | 0.9 | / | 2.0
Cc1occc1C(=O)N1CCN(S(=O)(=O)c2ccc(F)cc2)CC1 | 0.3 | 0.689 | -1.5 | 1.9 | 2.9 | i | 3.5
CCCC(=O)OCCNc1cc(SCCC(=O)OC)c2nonc2c1[N+](=O)[O-] | -3.9 | 0.67 | 4.3 | -3.0 | 18.3 | / | 12.1
Cc1ccc(Cl)cc1N1CCN(S(=O)(=O)c2c(C)nc3scc(C)n3c2=O)CC1 | 2.5 | 0.698 | -2.5 | 1.7 | 0.2 | i | -13.2
CCOc1cc(N2CCOCC2)c(OCC)cc1NC(=O)COc1cccc2cccnc12 | -13.5 | / | -4.4 | 2.2 | 26.3 | / | 2.8
N#Cc1c(SCC(=O)Nc2ccc(C(F)(F)F)cc2)sc2c(O)cc(=O)[nH]c12 | 95.1* | 0.649 | 2.8 | 0.2 | -3.0 | i | 3.4

Pulled by compound from the list above (four):
SMILES | ALR H2O2 inh | Ecoli growth | LANA-H2A inh | HNF4A DNA FP | B2AR ag | FGF22 binding | UCH37 DUB inh
O=C(CSc1ncc(-c2ccccc2)[nH]1)Nc1ccccc1F | 11.9 | 0.653 | -3.7 | 3.4 | -2.9 | i | 0.9
Cc1ccc(Cl)cc1N1CCN(S(=O)(=O)c2c(C)nc3scc(C)n3c2=O)CC1 | 2.5 | 0.698 | -2.5 | 1.7 | 0.2 | i | -13.2
CCC(CC)c1nnc(NC(=O)c2ccc(N3CCCCC3)c([N+](=O)[O-])c2)s1 | -6.8 | 0.75 | 3.0 | -6.2 | 0.9 | i | -1.1
Cc1occc1C(=O)N1CCN(S(=O)(=O)c2ccc(F)cc2)CC1 | 0.3 | 0.689 | -1.5 | 1.9 | 2.9 | i | 3.5

This is a subset; rates above refer to the full screens.
